Six1-Eya2 inh = blocks human Six1 binding to Eya2. Q15475+O00167. AlphaScreen GST-Six1/His-Eya2 binding, biochemical; hits give low values; control for the full effect not named in the record. activity change, % (test concentration not listed). actives 0.56% (n = 360,000). AID 651725; in the data active = activity change below about -65%; inconclusive = about -30% to -65%; inactive = above about -30%; note: % is set by controls: 0 for no effect and ±100 for the full control effect; compound concentration not given in the record
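Six1/Eya2 binding was read as AlphaScreen signal after compounds were pinned into GST-Six1 plus His-tagged Eya2 (5X stock 250/500 nM) in pH 8.0 Tris/NaCl/TCEP buffer, beads added, then incubated 1 h, 37 C, dark.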
D2 PAM = potentiates the human D2 dopamine receptor allosterically. P14416. DiscoveRx D2 beta-arrestin cells, luminescence, 90 min; 100% = 57 uM dopamine signal. potentiation, % (concentration not given with the values). actives 0.23% (n = 360,000). AID 624464; active = potentiation of 50% or more; inconclusive = 30% to 50%; inactive = 30% or less;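 note: compound concentration not given in the record; tested on top of an EC20 dose of dopamine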
Target sequence (P14416 whole entry, looked up): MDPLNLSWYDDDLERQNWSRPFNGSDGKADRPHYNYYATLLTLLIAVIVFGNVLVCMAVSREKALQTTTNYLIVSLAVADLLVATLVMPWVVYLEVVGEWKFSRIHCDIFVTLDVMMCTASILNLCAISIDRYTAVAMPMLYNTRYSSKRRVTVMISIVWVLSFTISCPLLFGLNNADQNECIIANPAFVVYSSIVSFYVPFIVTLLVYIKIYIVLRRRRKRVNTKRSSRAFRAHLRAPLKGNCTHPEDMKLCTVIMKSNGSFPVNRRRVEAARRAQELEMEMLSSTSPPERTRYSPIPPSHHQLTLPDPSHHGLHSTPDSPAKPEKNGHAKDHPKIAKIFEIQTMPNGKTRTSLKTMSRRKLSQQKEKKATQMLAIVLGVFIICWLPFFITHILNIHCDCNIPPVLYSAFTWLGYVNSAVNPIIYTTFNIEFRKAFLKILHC
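PathHunter beta-arrestin assay in DiscoveRx D2 cells. Compounds were added with an EC20 of dopamine (50 nM final) for 90 min at 37 deg C. Luminescence was read 1 h after detection reagent, with 57 uM dopamine as the EC100 control.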
TRPML1 ag = activates the human TRPML1 channel | activation, % (no concentration beside the values) | Q9GZU1 | TRPML1-expressing cells, Ca2+ dye fluorescence, FDSS; host cell line not named in the record; reference of the full effect not given here | actives 0.12% (n = 410,000); in the data active = activation above about 50%; inconclusive = about 30% to 50%; inactive = below about 30%; note: 0% is about no effect; the text of the record puts the active cut at 80%
Target sequence (Q9GZU1 whole entry, looked up): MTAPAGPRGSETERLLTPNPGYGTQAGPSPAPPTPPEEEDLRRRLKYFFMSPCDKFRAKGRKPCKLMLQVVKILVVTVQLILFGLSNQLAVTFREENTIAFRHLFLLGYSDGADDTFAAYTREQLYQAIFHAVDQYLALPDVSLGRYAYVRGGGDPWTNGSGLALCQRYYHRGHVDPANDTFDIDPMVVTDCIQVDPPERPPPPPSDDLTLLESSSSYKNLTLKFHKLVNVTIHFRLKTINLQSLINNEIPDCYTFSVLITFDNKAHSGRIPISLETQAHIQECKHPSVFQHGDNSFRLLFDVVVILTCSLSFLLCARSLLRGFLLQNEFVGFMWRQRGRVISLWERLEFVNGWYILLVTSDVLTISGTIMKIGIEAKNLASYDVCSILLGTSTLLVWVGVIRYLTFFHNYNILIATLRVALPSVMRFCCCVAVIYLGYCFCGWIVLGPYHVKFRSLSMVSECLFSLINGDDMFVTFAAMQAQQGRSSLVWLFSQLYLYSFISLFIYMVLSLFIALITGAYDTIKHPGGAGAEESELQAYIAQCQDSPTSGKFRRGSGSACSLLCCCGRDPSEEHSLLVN
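Tet-induced TRPML1-DL cells, 1,500 per well, cultured overnight, were loaded with a no-wash Ca2+ dye for 45–90 min. Calcium fluorescence was recorded on the FDSS for 110 s after compound addition, before the EC80 agonist (4 uM 54-4) was added.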
TRPV1 PAM = potentiators of human vanilloid receptor 1 (TRPV1); TRPV1-expressing cells, Fluo-8 calcium influx, capsaicin EC20 potentiation; host cell line not named in the record; control for the full effect not named in the record; actives 0.02% (n = 320,000); potentiation, % at 8.33 µM; active means potentiation above 80%; inconclusive means 30% to 80%; inactive means below 30%; note: 0% is about no effect
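Cells expressing TRPV1 were dye-loaded with Fluo-8 and read kinetically: 10 s baseline, 3 min after compound (agonist portion), then 2 min after EC20 capsaicin (allosteric enhancer portion). Calcium-bound dye fluorescence at 480/520 nm.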
TRPML1 inh = blocks the human TRPML1 channel. TRPML1-inducible cells, Ca2+ dye fluorescence, FDSS; hits give low values; inhibition of EC80 agonist-evoked calcium signal. actives 0.02% (n = 390,000). AID 624415. activity change, negative = inhibition, % (test concentration not listed); in the data active means activity change below about -50%; inconclusive means about -30% to -50%; inactive means above about -30%;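 note: stimulus is agonist 54-4 at its EC80 concentration; % is set by controls: 0 for no effect and ±100 for the full control effect; compound concentration not given in the record; the text of the record puts the active cut at -80%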
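TRPML1-DL cells, Tet-induced overnight (~16 h, 37 °C) at 1,500 cells/well, were loaded with Ca8 no-wash dye plus quencher for 45-90 min at room temperature. Compounds were pinned during FDSS kinetic reading; agonist 54-4 at EC80 (4 uM final) then added.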
CtBP-E1A blk = blocks the CtBP interaction with E1A. AID 651724. actives 0.49% (n = 340,000). activity change, % (concentration not given with the values). AlphaScreen GST-E1A/His-CtBP binding, 1536-well; hits give low values; control for the full effect not named in the record; in the data active means activity change below about -65%; inconclusive means about -30% to -65%; inactive means above about -30%; note: % is set by controls: 0 for no effect and ±100 for the full control effect
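Homogeneous bead-based format: GST-tagged E1A captured on glutathione donor beads, His-tagged CtBP on nickel acceptor beads; compounds precede bead addition by 2 h at 37 °C.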
* hit, by the source's call; u = inconclusive; x = not tested or not shown.

#	SMILES	Six1-Eya2 inh	D2 PAM	TRPML1 ag	TRPV1 PAM	TRPML1 inh	CtBP-E1A blk
1	Cc1ccc2nc(-c3ccccc3)c(Cc3ccccc3C(F)(F)F)n2c1	-18.6	-2.0	1.1	x	0.6	-22.1
2	CC1(C)Cc2c(C#N)c(NCCO)nc(-c3ccco3)c2CO1	6.1	-1.6	-0.4	-4.6	-13.4	4.5
3	CC(C)(C)C(=O)CN1C2=NCCN2c2ccccc21	0.3	-3.0	-0.7	-0.4	-14.0	1.7
4	Cc1nnc(N/N=C/c2cccs2)[nH]c1=O	u	-11.2	-0.3	-3.4	15.5	x
5	COc1cc(/C=N/NC(=O)c2cc(O)cc(O)c2)ccc1OC(=O)c1ccccc1	u	-7.3	0.9	-3.2	5.3	u
6	CCn1c(O)c(N=Nc2ccc(Cl)c(C(=O)O)c2)c2ccccc21	-8.5	-8.6	1.3	-11.2	-11.6	-3.3
7	Brc1cccc(OCCCNC2CCCC2)c1	1.9	-23.6	0.7	9.0	-9.7	1.2
8	Cc1nnc(-c2ccccc2)c[n+]1[O-]	7.1	-9.7	0.9	9.4	-11.1	-11.6
9	CCOC(=O)C1=C(C)N(CCCC(=O)O)C(=O)NC1c1cccs1 (stereo not drawn)	0.9	-8.2	-0.6	x	4.4	6.0
10	COc1cccc(-c2cccc(NC(=O)C3CCN(Cc4ccc(C)o4)CC3)c2)c1	-9.0	-31.2	0.3	-10.8	28.7	-3.7
11	CC1CC/C(=N/Nc2ccccc2)C(=O)N1 (stereo not drawn)	7.8	-17.3	0.4	u	7.2	-7.1
12	NC(=O)[C@H]1CC2(CC(c3cccc(NC(=O)CC(c4ccccc4)c4ccccc4)c3)=NO2)CN1C(=O)C(c1ccccc1)c1ccccc1 (stereo partly drawn)	-5.6	-8.7	-0.1	6.1	-6.8	-3.9
13	COc1ccc(CN(C)C(=O)CNC(=O)c2ccc(C)cc2)cc1	-10.5	-9.0	-0.1	-0.5	-10.7	5.3
14	COCCN(C(=O)CCC(=O)Nc1ccccn1)C(C(=O)NCCC(C)C)c1ccc(F)cc1 (stereo not drawn)	1.4	0.0	-0.6	-3.3	29.8	4.0
15	CC(OC(=O)CN1C(=O)NC2(CCCCC2C)C1=O)c1ccccc1 (stereo not drawn)	1.1	-0.5	0.0	-0.3	-8.4	-1.3
16	Cc1ccc(/C=N/n2cnc3sc4c(c3c2=O)CCCC4)o1	-5.3	-17.8	1.1	u	-7.3	-5.7
17	CCOc1ccc(C(=O)NCC(=O)NCC(c2cccs2)N2CCOCC2)cc1 (stereo not drawn)	-0.2	2.9	0.4	4.4	5.4	1.6
18	O=C(NC(=S)NNS(=O)(=O)c1ccc(Cl)cc1)c1cccnc1	-3.5	-6.1	0.4	-3.1	-6.8	9.9
19	COc1ccc(NC(=O)c2cc(-c3cccs3)on2)cc1OC	2.7	-11.1	1.9	-2.6	-1.7	3.0
20	CCCCCCCCCCCCCCC(O)C[N+](C)(CCO)CCO (stereo not drawn)	13.1	-18.1	0.9	x	-1.7	6.2

Rewritten with two lines to a compound: entries from further up
Each structure is followed by: Six1-Eya2 inh | D2 PAM | TRPML1 ag | TRPV1 PAM | TRPML1 inh | CtBP-E1A blk
11: CC1CC/C(=N/Nc2ccccc2)C(=O)N1 (stereo not drawn)
→ 7.8 | -17.3 | 0.4 | u | 7.2 | -7.1
12: NC(=O)[C@H]1CC2(CC(c3cccc(NC(=O)CC(c4ccccc4)c4ccccc4)c3)=NO2)CN1C(=O)C(c1ccccc1)c1ccccc1 (stereo partly drawn)
→ -5.6 | -8.7 | -0.1 | 6.1 | -6.8 | -3.9
13: COc1ccc(CN(C)C(=O)CNC(=O)c2ccc(C)cc2)cc1
→ -10.5 | -9.0 | -0.1 | -0.5 | -10.7 | 5.3

Following part.
#	SMILES	Six1-Eya2 inh	D2 PAM	TRPML1 ag	TRPV1 PAM	TRPML1 inh	CtBP-E1A blk
21	COc1cc(CC(NC(C)=O)C(=O)NC2CCN(C(=O)c3ccc(C)cc3)CC2)cc(OC)c1 (stereo not drawn)	11.0	-1.4	0.7	-1.9	3.0	-6.9
22	CCOC(=O)c1cc2c(c(CCO)n1)[C@H](CCO)N(S(=O)(=O)C(C)(C)C)C2	0.0	x	-0.5	x	-1.3	0.0
23	Cn1ncc(Cl)c1C(=O)NNC(=O)Nc1cccc2ccccc12	1.2	-10.2	-0.8	0.9	-4.6	-1.2
24	O=C(O)c1cc(C(=O)O)cc(-c2ccc(/C=c3/sc4nc5ccccc5n4c3=O)o2)c1	u	-1.7	0.8	-3.1	-21.5	-9.1
25	COC(=O)c1ccc2nc(-c3ccc(F)cc3)c(Cc3ccccc3)n2c1	8.0	-14.1	1.3	x	-9.9	7.5
26	O=C(O)c1cc(N/N=C/c2ccc(OCc3ccccc3)cc2)ccc1Cl	1.4	4.4	-1.2	-2.4	-11.1	4.2
27	COc1ccc(C(N)CCc2ccco2)cc1 (stereo not drawn)	0.2	-18.8	2.9	9.5	-20.0	12.0
28	O=C(NCCc1nnc2ccc(SCC(=O)N3CCCC3)nn12)c1ccc(F)cc1	-0.9	-5.2	-0.7	3.1	5.6	-2.8
29	C=C(C)Cn1c(C(C)NC(=O)CCC)nc2ccccc21 (stereo not drawn)	22.4	-8.6	-0.4	-11.4	-11.6	0.0
30	CC(C)(C)C(=O)NCc1ccc(C(=O)CN2C(=O)NC3(CCCC3)C2=O)s1	3.6	7.4	0.1	0.8	6.8	-2.1
31	NC(=O)c1ccccc1OCC(=O)NS(=O)(=O)c1ccccc1	0.3	-6.1	0.8	12.5	10.1	-0.9
32	Cc1coc(C)c1C(=O)CC1(O)C(=O)N(C)c2ccc(Cl)cc21 (stereo not drawn)	0.2	-14.4	0.5	0.7	3.1	x
33	O=C(Nc1ccccc1Cl)c1cc(C2CCCCN2C(=O)CCc2ccccc2)on1 (stereo not drawn)	2.2	-10.6	0.7	x	x	4.6
34	Cc1cccc(NC(=S)N2CCOCC2)c1C	7.8	-2.1	0.6	-32.1	12.7	1.7
35	Cc1ccccc1NS(=O)(=O)c1ccc(C(=O)NCc2ccccc2CN2CCCC2)cc1	-10.3	-28.3	-0.5	x	2.1	-7.7
36	C=CC(=O)Oc1ccc(N2Cc3ccccc3C2=O)cc1	-12.9	-32.0	2.2	x	11.6	x
37	COc1ccc(N2C(=O)C3C(C2=O)C(C(=O)c2ccc(Cl)cc2)N2CCCC32)cc1 (stereo not drawn)	5.3	-4.0	2.3	-14.2	25.1	1.8
38	COc1ccc(-c2c/c(=N\c3nc(-c4ccccc4)c(C)s3)c3ccccc3o2)cc1O	u	-1.1	0.5	12.0	52.3	-29.6
39	CN(C)CCOC(=O)C12CC3CC(C1)CC(C(=O)OCCN(C)C)(C3)C2	1.3	-17.5	-0.3	-5.3	-9.7	-1.7
40	CCCCn1nnnc1C(c1cc2ccccc2o1)N1CCN(CC(=O)N2CCCC2)CC1 (stereo not drawn)	-2.7	x	5.6	x	x	1.3
41	c1ccc2c(-c3nn4nnnc4c4ccccc34)cccc2c1	-10.1	-4.8	0.8	9.5	10.7	0.3
42	O=C(N/N=C/c1cccn1-c1ccc([N+](=O)[O-])cc1)C(O)c1ccccc1 (stereo not drawn)	-17.7	-7.0	0.1	-16.9	-13.1	-21.4
43	CCNc1nc(NCC)n2c(SCC(=O)c3ccc(C(C)C)cc3)nnc2n1	0.0	-3.8	-0.7	2.9	5.5	-11.9
44	Cc1nnsc1C(=O)NC1CCCc2c1cnn2-c1ccc(C(C)(C)C)cc1 (stereo not drawn)	-0.8	-0.4	-0.2	3.3	-17.2	6.7
45	O=C(O)C1CCCN1C(=O)Nc1ccc(Cl)cc1 (stereo not drawn)	0.7	-3.6	-0.3	-4.6	38.9	0.8
46	CC(C)NC(=O)c1ccc(Sc2ccccc2)c([N+](=O)[O-])c1	-3.6	4.5	3.1	9.1	-4.6	-5.5
47	CCCn1c(COc2ccccc2)nc2ccccc21	-2.3	2.8	2.0	-20.3	-0.9	-3.8
48	CCOC(=O)c1cnc2ccc(OC)cc2c1NCc1ccccc1	22.1	5.0	0.0	-18.9	27.0	26.5
49	CC(C)(C)OC(=O)N1Cc2ccccc2C[C@H]1C(=O)NCC(=O)NCC1CCCO1 (stereo partly drawn)	23.2	-2.0	-0.7	-1.3	23.6	4.2
50	COCCNC(=O)c1cc(-c2ccccc2)n(CC2CC(c3ccc(OC)cc3)=NO2)n1 (stereo not drawn)	-25.6	4.2	-0.2	u	13.3	-6.8
51	COc1cc(/C=C(/C#N)C(=O)Nc2ccccc2)c(Br)cc1OCc1ccc(C(=O)O)cc1	-3.0	1.4	1.6	14.8	17.0	-6.8
52	O=C(Nc1ccc(N2CCOCC2)cc1)C1(S(=O)(=O)c2ccccc2)CC1	5.2	-3.4	-0.1	0.5	2.5	0.0
53	Fc1ccc(-c2nnc(CN3CCC(c4nc5ccccc5s4)CC3)o2)cc1	-2.9	-31.1	2.4	19.5	-0.6	0.9
54	COc1ccc(N2C(=O)CC(N3CCN(C4CCc5ccccc5C4)CC3)C2=O)cc1 (stereo not drawn)	-9.4	-14.8	0.0	-5.4	9.9	-17.6
55	CCCCC(=O)Nc1nnc(S(=O)(=O)N(C)Cc2ccco2)s1	3.8	-7.9	0.4	-3.2	2.4	-4.0
56	O=C(NCc1ccc2c(c1)OCO2)c1cc([N+](=O)[O-])ccc1N1CCOCC1	0.4	1.0	-0.5	x	3.9	-0.4
57	Cc1ccc(-n2nc3c(c2NC(=O)c2ccccc2Br)CS(=O)C3)cc1 (stereo not drawn)	-2.0	-0.8	-0.6	22.8	1.2	2.5
58	O=C1NC2(CCCCC2)Oc2ccccc21	8.2	-28.3	-0.7	-2.7	-6.3	6.3
59	CCC(=O)N1CCN(c2nc(C)nc3sc(C)c(C)c23)CC1	-2.8	-1.7	-0.7	-22.4	64.4	9.0
60	CCN(Cc1nc2ccccc2c(=O)[nH]1)C(=O)COc1ccccc1Cc1ccccc1	-5.5	-4.4	2.9	-1.7	8.4	-2.2
61	O=C(CSCc1nc2c(nnn2Cc2ccc(F)cc2)c(=O)[nH]1)Nc1c(Cl)cc(Cl)cc1Cl	7.9	-6.5	1.5	-5.4	6.0	6.9
62	CCCCNC(=O)c1ccc2c(=O)n(CCCOCC)c(=S)[nH]c2c1	-2.2	-1.6	0.0	-0.4	-14.5	-8.6
63	CCOc1ccc(OCC)c(S(=O)(=O)n2ccnc2C)c1	8.7	-1.2	0.6	-5.2	64.3	-9.0
64	CN1C(=O)[C@H]2[C@@H](c3ccc(C(F)(F)F)cc3)N[C@]3(CCCN(Cc4ccc(Cl)cc4)C3=O)[C@H]2C1=O	-1.4	5.3	-0.6	x	-13.4	5.3
65	CSc1ccccc1C(=O)N1CCOCC1	10.4	-6.7	0.3	-1.3	43.9	1.4
66	O=C1NC(=Nc2ccccc2)c2c1cccc2[N+](=O)[O-]	-3.9	9.6	-0.5	3.9	-4.6	0.2

3 entries from above, arranged by the number in TRPML1 inh, highest first.
no. | SMILES | TRPML1 inh
63 | CCOc1ccc(OCC)c(S(=O)(=O)n2ccnc2C)c1 | 64.3
66 | O=C1NC(=Nc2ccccc2)c2c1cccc2[N+](=O)[O-] | -4.6
62 | CCCCNC(=O)c1ccc2c(=O)n(CCCOCC)c(=S)[nH]c2c1 | -14.5

Bioassay records from PubChem.
